YopH PTP inh – YopH (Yersinia) phosphatase inhibition | 0.16% of 140,000 active | fluorescence Ex485/Em525 | AID 898 | inhibition, %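 (about 10 µM by stock and volumes)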;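 active = inhibition of 50% or more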;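 note: controls were vehicle for no effect and minimum signal wells for full effect; inactives centre near -20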
Arbovirus anti – antivirals against arbovirus infection | arbovirus infection cell-based antiviral screen | 0.37% of 200,000 active | AID 1251 | inhibition, % at 10 µM;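 active = inhibition from about 30%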;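 note: bluetongue infection of BSR cells; cell survival read as ATP light after 72 h; 0% = infected wells without compound and 100% = uninfected wells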
Mtb H37Rv – M. tuberculosis H37Rv growth inhibitors, H37Rv strain (AID 1626). M. tuberculosis H37Rv growth inhibition; higher % means a stronger effect. inhibition, % at 10 µM; hits with a dose series show IC50 in µM. 0.95% of 220,000 active;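 active = confirmed in a dose series; inconclusive = inhibition above 80% but not taken into the dose series; inactive = below 80% or under 30% at every dose of the series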;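 note: bacteria incubated seven days before Alamar blue readout; 0% = bacteria only wells and 100% = bacteria with antibiotic wells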
RecA intein inh – blocks M. tuberculosis RecA intein splicing; 0.75% of 290,000 active; cell-free RecA intein splicing, fluorescence; AID 2221; P9WHJ3; inhibition, %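 (about 9 µM by stock and volumes)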; in the data active = inhibition above about 30%; inconclusive = no clear call, values can overlap the other calls;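 note: 0% = vehicle wells and 100% = reference inhibitor control wells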
Target sequence (P9WHJ3 whole entry, looked up): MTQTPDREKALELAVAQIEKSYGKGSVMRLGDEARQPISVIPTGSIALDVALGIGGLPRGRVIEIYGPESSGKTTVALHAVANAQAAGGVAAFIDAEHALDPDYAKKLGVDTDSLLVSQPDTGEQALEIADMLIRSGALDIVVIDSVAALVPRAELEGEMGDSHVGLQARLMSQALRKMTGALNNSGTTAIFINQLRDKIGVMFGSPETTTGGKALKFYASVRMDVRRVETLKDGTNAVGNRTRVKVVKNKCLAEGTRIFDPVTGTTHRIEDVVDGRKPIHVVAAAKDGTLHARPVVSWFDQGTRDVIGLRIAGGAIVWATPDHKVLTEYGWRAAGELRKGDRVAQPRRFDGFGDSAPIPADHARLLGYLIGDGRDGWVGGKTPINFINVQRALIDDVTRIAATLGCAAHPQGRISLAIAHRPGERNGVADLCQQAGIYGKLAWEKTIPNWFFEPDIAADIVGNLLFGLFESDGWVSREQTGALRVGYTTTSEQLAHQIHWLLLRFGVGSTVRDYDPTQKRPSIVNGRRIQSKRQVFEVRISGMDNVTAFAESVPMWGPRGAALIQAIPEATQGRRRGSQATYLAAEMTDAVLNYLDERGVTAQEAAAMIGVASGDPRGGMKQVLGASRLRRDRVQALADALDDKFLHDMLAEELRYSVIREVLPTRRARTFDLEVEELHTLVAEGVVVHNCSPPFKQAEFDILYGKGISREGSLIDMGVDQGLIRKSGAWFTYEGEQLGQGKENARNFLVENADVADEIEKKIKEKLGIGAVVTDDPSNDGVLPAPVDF
Mtb bLac sens – beta-lactam sensitization of Mtb H37Rv; M. tuberculosis H37Rv growth with meropenem, percent inhibition; hits of this screen are not shown here; AID 434955; inhibition, % at 25 µM; 0.27% of 330,000 active;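 active = about 74% or more and at least 40 points above the plate without the antibiotic, then above 30% in a dose series; inconclusive = first-round hits that could not be retested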;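 note: growth measured after seven days incubation then overnight dye step; 0% = bacteria only wells and 100% = bacteria with antibiotic; twin plates without the antibiotic show which effects depend on it; some results filed as inactive read as strong as hits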
Arbovirus anti repeat – also measured in Arbovirus anti; calls as there; inhibition, %; measured here: 10K subset replicate screen; many hits read low in the repeat;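 first of two repeat runs on a subset; 0% = infected and 100% = uninfected wells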
* hit, by the source's call; ? = inconclusive; . = no result given. The list is partial; rates above refer to the full screens.

SMILES | YopH PTP inh | Arbovirus anti | Mtb H37Rv | RecA intein inh | Mtb bLac sens | others
Cc1cc(C)c(NC(=O)CS(=O)CC(=O)N2CCN(c3ccccc3)CC2)c(C)c1 (centres undefined) | -32 | 5 | -6% | -0.2 | -17
COc1ccc(OC2OC3COC(c4ccco4)OC3C(O)C2NC(C)=O)cc1 (centres undefined) | -5 | -3 | 7% | -2.8 | 5
CCOC(=O)c1[nH]c2ccc(F)cc2c1NC(=O)CN1CCc2cc(OC)c(OC)cc2C1 | -4 | -15 | . | 2.2 | ?
CC(=O)Nc1ccc(NC(=O)N(c2ccccc2)c2ccccc2)cc1 | . | . | . | -2.1 | 5
Cc1cc(=O)n2c3ccccc3n(CC(O)CN3CCCC3)c2c1C#N (centres undefined) | -42 | -5 | -7% | -0.5 | 13
CNc1nc(Oc2ccc(=O)n(C)n2)nc(N2CCOCC2)n1 | 1 | -3 | -3% | -0.5 | -3
Cc1csc(Nc2ccc(Cl)cc2)n1 | . | -11 | 3% | 1.0 | -4
CC1CCN(C(=O)Cn2nnnc2CN2CCOCC2)CC1 | . | . | . | -1.9 | 1
O=C(CCN1C(=O)S/C(=C/c2ccccc2)C1=O)Nc1ccc(O)c(C(=O)O)c1 | . | . | . | 4.0 | 1
O=C(Cc1ccc(-c2ccccc2)cc1)Nc1ccccc1 | . | . | . | 2.2 | -1
C/C(=N\NC(=O)c1cccs1)c1ccncc1 | . | . | . | -1.4 | 0
Cc1ccc(Cn2c(O)c(N=NC(=S)Nc3ccccc3F)c3ccccc32)cc1 | . | -15 | 3% | -2.5 | 19
Cc1cc(C)nc(N(C#N)CN2C(=O)c3ccccc3S2(=O)=O)n1 | -28 | 7 | 14% | . | 10
O=C(CN1CCN(c2ccccc2)CC1)Nc1ccccc1C(F)(F)F | 9 | 3 | 7% | -1.9 | -14
O=[N+]([O-])c1cc([N+](=O)[O-])c(N2CCCCCC2)cc1NCCO | -27 | 2 | -4% | 9.8 | 40
Cc1c(C(=O)C(=O)NCCc2ccc(S(N)(=O)=O)cc2)c2ccccc2n1C | -31 | -3 | 0% | -2.0 | 2
O=C(NCC1CCN(c2ccc(S(=O)(=O)N3CCOCC3)cc2)CC1)Nc1ccccc1 | . | . | . | -0.1 | -4
Cc1cccc(-c2nc3ccccc3c(=O)n2N)c1 | . | . | . | -1.5 | 2
CCN1C(=O)c2cccc3c(S(=O)(=O)Nc4ccccc4)ccc1c23 | -22 | -18 | -8% | 1.7 | -3
COc1ccccc1CNC(=O)[C@H](Cc1c[nH]c2ccccc12)NC(=O)[C@@H]1Cc2ccccc2CN1 | . | . | . | 14 | -1

The closing three compounds of the part above lead into the next:
SMILES | YopH PTP inh | Arbovirus anti | Mtb H37Rv | RecA intein inh | Mtb bLac sens | others
Cc1cccc(-c2nc3ccccc3c(=O)n2N)c1 | . | . | . | -1.5 | 2
CCN1C(=O)c2cccc3c(S(=O)(=O)Nc4ccccc4)ccc1c23 | -22 | -18 | -8% | 1.7 | -3
COc1ccccc1CNC(=O)[C@H](Cc1c[nH]c2ccccc12)NC(=O)[C@@H]1Cc2ccccc2CN1 | . | . | . | 14 | -1
CCOC(=O)N1CCC(N2CCN(C3CCCC3)C(CCO)C2)CC1 (centres undefined) | . | 6 | 3% | -0.7 | -4
CCN(CC)c1nc(N2CCOCC2)nc2ccccc12 | . | . | . | -5.8 | -8
Cc1ncoc1C(=O)Nc1cccc(Cl)c1 | -60 | -7 | -10% | 0.4 | .
O=C(Nc1ccccn1)c1c(O)c2cccc3c2n(c1=O)CCC3 | -47 | 16 | -3% | 0.0 | -9
CN1CCN(CC(=O)c2cc(C(C)(C)C)c(O)c(C(C)(C)C)c2)CC1 | . | . | . | -2.3 | -7
O=C(Nc1ccc2ccccc2n1)c1ccccc1 | . | . | . | -1.0 | 4
O=c1c2c(nc3nc(NCc4ccccc4Cl)[nH]n13)CCC2 | . | 25 | -14% | -2.0 | -3
Cc1ccc(Cn2ccsc2=NC(=O)CCl)cc1 | . | -22 | 53% | 17 | 98
Nc1nc(CSc2nc3ccccc3s2)nc(Nc2ccccc2)n1 | -18 | 3 | 16% | 1.0 | 2
Cc1ccc(S(=O)(=O)NN2C(=O)c3ccccc3NC2C)cc1 (centres undefined) | -15 | -1 | 4% | -3.1 | 1
COc1ccccc1N1CCN(S(=O)(=O)CC23CCC(CC2=O)C3(C)C)CC1 (centres undefined) | 38 | -6 | -16% | . | 2
Cc1nc2ccc(NC(=O)c3ccccc3)cc2s1 | . | -16 | -4% | 0.5 | -5
CCC(CC)NC(=O)CO/N=C/c1ccc(Cl)cc1Cl | . | 7 | 8% | 4.9 | -5
Cn1cnnc1SCC(=O)OCN1C(=O)c2ccccc2C1=O | -20 | -3 | -2% | 1.9 | -11
Cc1cc(/C=C2/NC(=O)NC2=O)c(C)n1-c1ccc(N2CCOCC2)cc1 | . | 4 | -8% | -16 | 6
O=C(CSC1=NC(=O)C(Cc2ccccc2)C(=O)N1)Nc1ncccn1 (centres undefined) | -11 | 0 | -3% | -1.3 | .
CCOc1ccc(OCc2ccc(C(=O)N3CCCC(C)C3)cc2)cc1 (centres undefined) | . | -22 | 20% | 7.9 | 72
CCOC(=O)C1CCN(C(=O)c2ccccc2CCc2ccccc2)CC1 | . | . | . | 4.4 | -6
Cc1ccc(NC(=O)CSc2nc(O)cc(=O)n2C)cc1 | -33 | 7 | -1% | 2.3 | -3
O=C(CCC(=O)Nc1ccccc1)NNS(=O)(=O)c1ccccc1[N+](=O)[O-] | . | 6 | -5% | 1.7 | -8

3 entries out of the list, arranged by molecular weight, smallest number first:
SMILES | YopH PTP inh | Arbovirus anti | Mtb H37Rv | RecA intein inh | Mtb bLac sens | others
Cc1csc(Nc2ccc(Cl)cc2)n1 | . | -11 | 3% | 1.0 | -4
O=C(Nc1ccc2ccccc2n1)c1ccccc1 | . | . | . | -1.0 | 4
Cc1ccc(Cn2c(O)c(N=NC(=S)Nc3ccccc3F)c3ccccc32)cc1 | . | -15 | 3% | -2.5 | 19

As a working copy, part of the list above.
SMILES | YopH PTP inh | Arbovirus anti | Mtb H37Rv | RecA intein inh | Mtb bLac sens | others
O=C(CSC1=NC(=O)C(Cc2ccccc2)C(=O)N1)Nc1ncccn1 (centres undefined) | -11 | 0 | -3% | -1.3 | .
CCOc1ccc(OCc2ccc(C(=O)N3CCCC(C)C3)cc2)cc1 (centres undefined) | . | -22 | 20% | 7.9 | 72
CCOC(=O)C1CCN(C(=O)c2ccccc2CCc2ccccc2)CC1 | . | . | . | 4.4 | -6
Cc1ccc(NC(=O)CSc2nc(O)cc(=O)n2C)cc1 | -33 | 7 | -1% | 2.3 | -3
O=C(CCC(=O)Nc1ccccc1)NNS(=O)(=O)c1ccccc1[N+](=O)[O-] | . | 6 | -5% | 1.7 | -8

New compounds follow.
SMILES | YopH PTP inh | Arbovirus anti | Mtb H37Rv | RecA intein inh | Mtb bLac sens | others
Cc1ccc(-n2c(C)cc(C(=O)CN3CCOCC3)c2C)cc1 | . | -7 | -7% | -0.7 | -8
Cc1nn(-c2ccc(C(=O)OC(C)C)cc2)c(C)c1[N+](=O)[O-] | . | 1 | 12% | 1.7 | -5
Cc1n[nH]c(C)c1Cc1ccc(C(=O)O)cc1 | -40 | 8 | -8% | -1.4 | 0
Cc1ccc(CN2CC(C(=O)N3CC(C)CC(C)C3)CC2=O)cc1 (centres undefined) | . | . | . | -1.0 | -7
CCCCCNc1nc(-c2ccccc2)nc(-n2ccnc2)n1 | . | -2 | -3% | 1.1 | 20
Cc1ccc(NP(=O)(Nc2ccc(C)cc2)Nc2ccc(C)cc2)cc1 | . | -19 | 8% | 6.9 | 2
COc1ccc2cc(C(c3nnnn3C3CCCC3)N3CCCCCC3)c3nnnn3c2c1 (centres undefined) | -2 | -16 | 85% | 2.1 | 96
Cc1nnc(SCC(=O)N2CCc3ccccc32)s1 | -9 | 39* | -2% | 0.3 | 6
Cc1cccc(C)c1OP(N)(=O)Oc1c(C)cccc1C | . | . | 7% | 9.3 | -6
CC(C)(C)C(=O)CSc1nc2ncc(Br)cc2[nH]1 | -36 | 13 | -2% | -0.4 | -5
COc1ccccc1CNc1nc2nc(C)c(Cl)c(=O)n2[nH]1 | -44 | 2 | -4% | 2.4 | 7
CCc1ccccc1NC(=O)COC(=O)C1CC(=O)N(c2ccc(F)cc2)C1 (centres undefined) | 21 | 2 | 6% | 10 | 8
O=C(NCc1ccco1)c1cc(C(=O)C2CCCCC2)c[nH]1 | -33 | -1 | 10% | -0.4 | 22
CC(C)c1ccccc1NS(C)(=O)=O | . | -3 | 4% | -2.4 | 1
CCCc1c(C)nc(-c2ccc(C)cc2)nc1OC(=O)N(C)C | . | . | 8% | 1.2 | 2
O=C(Nc1ccccc1)N1CCCN(c2nccc(C(F)(F)F)n2)CC1 | . | . | 12% | 0.7 | 2
COCCNC(=O)COc1ccccc1Cl | -45 | 1 | 3% | -0.6 | 3 | Arbovirus anti repeat=-4
COc1cccc(N2CCN(c3ccc4nnc(CCC(=O)N5CCN(C)CC5)n4n3)CC2)c1 | . | . | . | -6.7 | -1
N#CCCN1CCN(Cc2ccccc2)CCC1=O | . | . | . | -3.8 | -5
O=C(Nc1ccc(F)cc1)c1c(Cl)nc2ccccn12 | . | 0 | -5% | 0.0 | 3
CC(C)CC(c1nnnn1Cc1ccccc1)N1CCC(C(N)=O)CC1 (centres undefined) | -4 | 6 | 1% | 5.6 | -2
COc1cc(Br)c(CNc2cc(C)ccc2C)cc1OC | . | . | . | 10 | 3
COc1ccc(/C=C2\SC(=S)N(CCC(=O)Nc3ccc(O)cc3)C2=O)cc1 | . | . | . | 2.5 | 6
COc1ccc(Nc2nc(N)c3ccccc3n2)c(OC)c1 | . | . | . | 0.9 | 1
COc1ccc(C)cc1-n1nnnc1SCc1cn2ccsc2n1 | -34 | -5 | -4% | 2.1 | 1
O=C(Cc1ccccc1)NN1C(=O)c2ccccc2C1=O | . | 1 | 3% | -0.4 | 5
N#CC(C(=O)NC1CCCCC1)c1nc2ccccc2nc1N1CCN(c2ccc(F)cc2)CC1 (centres undefined) | -37 | -1 | 9% | -8.2 | .
COc1ccc(C)cc1Cn1nnc2ccccc21 | . | . | . | 0.4 | -4
Cc1nc2ccccn2c1C(=O)NC1CCCC1 | . | 6 | -4% | 0.6 | -2
O=C(c1ccc2nccnc2c1)N1CCCC(Nc2ccc(F)c(F)c2)C1 (centres undefined) | . | . | . | 0.9 | -6
Cc1ccc(NC(=O)CSc2ccccn2)cc1S(=O)(=O)N1CCOCC1 | . | 0 | -1% | 0.8 | -8
CCOC(=O)C1=C(c2ccccc2)N2CCS(=O)(=O)N=C2S1 | -45 | 3 | -3% | -0.2 | -11
N=c1cc(C2(O)CCCCC2)n2c(nc3ccccc32)s1 | 4 | -8 | -11% | -3.1 | 3
Cc1ccccc1NC(=O)COc1coc(CN2CCCc3ccccc32)cc1=O | . | . | . | -2.3 | -3
COc1ccc(CCNC2CCc3ccccc3C2)cc1 (centres undefined) | . | . | . | 1.9 | -3
CCOC(=O)c1sc(NC(=O)c2ccc(S(=O)(=O)N3CCCCCC3)cc2)nc1-c1ccccc1 | -7 | 12 | 9% | -3.3 | 16
COc1ccc(CN2C(=O)CC(Cc3ccc(C)cc3)C2=O)cc1OC (centres undefined) | -33 | 6 | -2% | -1.4 | 9
CCCN1C(=O)C2(OCCO2)c2cc(Cl)ccc21 | . | . | . | -1.1 | 5
Cc1ccc(NC(=O)Nc2cccs2)c(Cl)c1 | -25 | 4 | 5% | 1.8 | -8
CCO[C@H]1OC(C(=O)N2CCN(Cc3ccc4c(c3)OCO4)CC2)=C[C@@H](c2ccc(Br)cc2)[C@@H]1CCCO | . | -17 | 0% | 8.7 | 26
N/C(=N\NC(=O)c1ccccc1)c1cc2ccccc2oc1=O | . | 11 | -12% | -0.5 | 16

Assay outcomes from PubChem.
